# Screening data deposited in PubChem by Broad Institute.
# BJeLR viability – lowers viability of BJeLR cells; actives 0.64% (n = 30,000); viability loss activity score, % (test concentration not listed); BJeLR fibroblasts viability, CellTiterGlo ATP luminescence, 48 h; HRASV12, hTERT and SV40 LT/ST transformed; in the data active = viability loss activity score above about 50%; about a fifth of its hits are not listed in these tables;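 note: higher score means fewer live cells and less ATP luminescence; stock transfer was 50 or 100 nL into about 30 µL; 0% = vehicle wells and 100% = a reference killing control; one replicate is shown; the record names a cut of 85%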
# A1 inhib – A1 inhibition; AID 2241; actives 0.51% (n = 21,000); MEF A1-2A-BIM cells, caspase-Glo luminescence, 3 h; percent of clofoctol signal, DMSO as zero; caspase activation, % (no concentration beside the values);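 active = most replicate scores above 10, or exactly half above 10 with mean activity above 10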;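 note: effector caspase 3 and 7 activity cleaving a DEVD luciferin substrate; 50 nL library stock added to about 30 µL; numbers are from one replicate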
# Numbers without * were called inactive; nt = not tested or not shown. Some of the compounds tested. The share of hits here may be higher or lower than overall.
Cn1cccc1Cc1nnc(SCC(=O)NC2CCCCC2)n1CCc1ccccc1
- BJeLR viability: -2.6
- A1 inhib: 0.6
CCCc1ccc(S(=O)(=O)Nc2ccc(C)c(NS(C)(=O)=O)c2)cc1
- BJeLR viability: 7.5
- A1 inhib: nt
CNC[C@H]1Oc2ccc(NS(=O)(=O)c3ccc(OC)cc3)cc2C(=O)N([C@@H](C)CO)C[C@@H]1C
- BJeLR viability: -1.2
- A1 inhib: 0.5
Cc1ccc(-n2sc3ccccc3c2=O)cc1
- BJeLR viability: 16
- A1 inhib: -5.6
CCOC(=O)C1CCC(C(=O)OCC)N1C(=O)Nc1ccc(Cl)cc1 (stereo not given)
- BJeLR viability: 2.5
- A1 inhib: 0.3
C[C@@H]1CN([C@H](C)CO)C(=O)c2cccc(NC(=O)c3ccncc3)c2O[C@@H]1CN(C)C(=O)Nc1ccc(C(F)(F)F)cc1
- BJeLR viability: -0.4
- A1 inhib: nt
Cc1ccc(C(=O)Nc2ccc3c(c2)OCO3)cc1
- BJeLR viability: 3.0
- A1 inhib: -7.4
N#Cc1c(-c2ccccc2)c(-c2ccccc2)nn(CC(=O)NN)c1=O
- BJeLR viability: 27
- A1 inhib: 2.4
C[C@@H]1CN([C@@H](C)CO)C(=O)c2cccc(NC(=O)NC3CCCCC3)c2O[C@H]1CN(C)S(=O)(=O)c1ccc(F)cc1
- BJeLR viability: 0.2
- A1 inhib: nt
Cc1ccc(OCc2nn(C)c3ccccc23)cc1
- BJeLR viability: 5.1
- A1 inhib: -5.9

C[C@H]1CN([C@@H](C)CO)C(=O)c2cc(NS(=O)(=O)c3ccccc3)ccc2O[C@@H]1CN(C)S(=O)(=O)c1cccs1
- BJeLR viability: -0.4
- A1 inhib: 0.0
CC1(C)CC[C@]2(C(=O)O[C@@H]3O[C@H](CO)[C@@H](O)[C@H](O)[C@H]3O)CC[C@]3(C)C(=CCC4[C@@]5(C)CC[C@H](O[C@@H]6O[C@H](C(=O)O)[C@@H](O)[C@H](O)[C@H]6O)[C@@](C)(CO)C5CC[C@]43C)C2C1 (stereo not given in full)
- BJeLR viability: 2.5
- A1 inhib: -0.2
C[C@@H]1CN([C@@H](C)CO)C(=O)c2cc(NS(=O)(=O)c3ccc(F)cc3)ccc2O[C@H]1CN(C)Cc1ccc(-c2ccccc2)cc1
- BJeLR viability: -4.3
- A1 inhib: 0.5
COc1cc(C2OC(c3cc(OC)c(OC)c(OC)c3)C(C)C2C)cc(OC)c1OC (stereo not given)
- BJeLR viability: -4.7
- A1 inhib: 1.3
O=C(NCCCn1ccnc1)c1noc2c1CCCC2
- BJeLR viability: -2.1
- A1 inhib: nt

# Complete entries, quoted from the list:
# Listed for C[C@@H]1CN([C@@H](C)CO)C(=O)c2cc(NS(=O)(=O)c3ccc(F)cc3)ccc2O[C@H]1CN(C)Cc1ccc(-c2ccccc2)cc1 = BJeLR viability = -4.3; A1 inhib = 0.5
# Listed for CC1(C)CC[C@]2(C(=O)O[C@@H]3O[C@H](CO)[C@@H](O)[C@H](O)[C@H]3O)CC[C@]3(C)C(=CCC4[C@@]5(C)CC[C@H](O[C@@H]6O[C@H](C(=O)O)[C@@H](O)[C@H](O)[C@H]6O)[C@@](C)(CO)C5CC[C@]43C)C2C1 (stereo not given in full) = BJeLR viability = 2.5; A1 inhib = -0.2
# Listed for O=C(NCCCn1ccnc1)c1noc2c1CCCC2 = BJeLR viability = -2.1; A1 inhib = nt

# As a working copy, some entries already given.
C[C@H]1CN([C@@H](C)CO)C(=O)c2cc(NS(=O)(=O)c3ccccc3)ccc2O[C@@H]1CN(C)S(=O)(=O)c1cccs1
- BJeLR viability: -0.4
- A1 inhib: 0.0
CC1(C)CC[C@]2(C(=O)O[C@@H]3O[C@H](CO)[C@@H](O)[C@H](O)[C@H]3O)CC[C@]3(C)C(=CCC4[C@@]5(C)CC[C@H](O[C@@H]6O[C@H](C(=O)O)[C@@H](O)[C@H](O)[C@H]6O)[C@@](C)(CO)C5CC[C@]43C)C2C1 (stereo not given in full)
- BJeLR viability: 2.5
- A1 inhib: -0.2
